Mtb bLac sens = beta-lactam sensitization of Mtb H37Rv, H37Rv. M. tuberculosis H37Rv growth with meropenem, percent inhibition; hits of this screen are not shown here. inhibition, % at 25 µM. actives 0.27% (n = 330,000);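 active = about 74% or more and at least 40 points above the plate without the antibiotic, then above 30% in a dose series; inconclusive = first-round hits that could not be retested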;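 also: growth measured after seven days incubation then overnight dye step; 0% = bacteria only wells and 100% = bacteria with antibiotic; twin plates without the antibiotic show which effects depend on it; some results filed as inactive read as strong as hits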
Arbovirus inh = antivirals against arbovirus infection, primary screen, cell-based, full library, 10K replicate subset; arbovirus infection cell-based antiviral screen; inhibition, % at 10 µM; actives 0.37% (n = 200,000);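 active = inhibition from about 30%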;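 also: bluetongue infection of BSR cells; cell survival read as ATP light after 72 h; 0% = infected wells without compound and 100% = uninfected wells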
Mtb growth = M. tuberculosis H37Rv growth inhibitors, H37Rv strain (AID 1626); M. tuberculosis H37Rv growth inhibition; higher % means a stronger effect; inhibition, % at 10 µM, or IC50 in µM where a hit was titrated; actives 0.95% (n = 220,000);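 active = confirmed in a dose series; inconclusive = inhibition above 80% but not taken into the dose series; inactive = below 80% or under 30% at every dose of the series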;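 also: bacteria incubated seven days before Alamar blue readout; 0% = bacteria only wells and 100% = bacteria with antibiotic wells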
RecA splice inh = Mtb RecA intein splicing inhibitors, primary screen, biochemical, fluorescence, HTS | cell-free RecA intein splicing | inhibition, %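 (about 9 µM by stock and volumes)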 | actives 0.75% (n = 290,000) | AID 2221, 2009; in the data active = inhibition above about 30%; inconclusive = no clear call, values can overlap the other calls;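 also: 0% = vehicle wells and 100% = reference inhibitor control wells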
Target sequence (P9WHJ3 whole entry, looked up, canonical isoform): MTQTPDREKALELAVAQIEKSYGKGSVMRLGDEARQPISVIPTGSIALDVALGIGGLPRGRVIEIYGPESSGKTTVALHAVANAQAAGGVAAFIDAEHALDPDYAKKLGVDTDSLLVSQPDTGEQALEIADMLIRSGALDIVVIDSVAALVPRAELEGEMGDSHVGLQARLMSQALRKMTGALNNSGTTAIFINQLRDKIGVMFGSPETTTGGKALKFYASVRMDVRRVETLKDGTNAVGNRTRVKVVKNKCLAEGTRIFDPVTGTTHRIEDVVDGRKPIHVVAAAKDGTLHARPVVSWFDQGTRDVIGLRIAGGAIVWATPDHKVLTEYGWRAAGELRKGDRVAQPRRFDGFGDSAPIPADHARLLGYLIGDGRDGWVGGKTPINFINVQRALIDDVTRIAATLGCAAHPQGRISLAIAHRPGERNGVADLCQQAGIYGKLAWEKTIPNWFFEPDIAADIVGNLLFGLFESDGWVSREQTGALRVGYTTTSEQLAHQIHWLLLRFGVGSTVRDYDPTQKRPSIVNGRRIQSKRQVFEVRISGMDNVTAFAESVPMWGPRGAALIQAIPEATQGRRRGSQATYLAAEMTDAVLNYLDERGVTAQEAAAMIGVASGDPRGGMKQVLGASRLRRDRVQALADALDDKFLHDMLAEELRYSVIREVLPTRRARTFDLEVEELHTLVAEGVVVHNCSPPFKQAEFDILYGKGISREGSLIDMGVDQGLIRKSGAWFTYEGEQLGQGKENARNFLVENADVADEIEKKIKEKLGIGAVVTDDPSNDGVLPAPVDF
YopH PTP inh = YopH tyrosine phosphatase inhibitors, primary screen, biochemical, fluorescence Ex485/Em525 | YopH tyrosine phosphatase [Yersinia enterocolitica] | inhibition, %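 (about 10 µM by stock and volumes)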 | actives 0.16% (n = 140,000) | AID 898, 2007;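 active = inhibition of 50% or more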;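 also: controls were vehicle for no effect and minimum signal wells for full effect; inactives centre near -20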
Arbovirus inh repeat = recorded beside Arbovirus inh, whose call it bears; inhibition, %; measured here: 10K subset replicate screen; many hits read low in the repeat;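 first of two repeat runs on a subset; 0% = infected and 100% = uninfected wells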
* = called active by the depositor; ? = inconclusive; / = not tested or not shown. Not all compounds are listed; the hit share may differ from the screen's.

The opening 3 compounds (preview)
SMILES	Mtb bLac sens	Arbovirus inh	Mtb growth	RecA splice inh	YopH PTP inh	others
COc1ccc(N2CCN(C(=O)CCNS(=O)(=O)c3cc(Br)cnc3N)CC2)cc1	-1	/	/	1.8	/
Cc1ccc(Nc2nc3nonc3nc2N(C)C)cc1	-7	10	-2%	-3.5	-6
C#CCn1c(CCNC(=O)c2ccco2)nc2ccccc21	1	/	/	-0.4	/

Main list, previewed entries included:
SMILES	Mtb bLac sens	Arbovirus inh	Mtb growth	RecA splice inh	YopH PTP inh	others
COc1ccc(N2CCN(C(=O)CCNS(=O)(=O)c3cc(Br)cnc3N)CC2)cc1	-1	/	/	1.8	/
Cc1ccc(Nc2nc3nonc3nc2N(C)C)cc1	-7	10	-2%	-3.5	-6
C#CCn1c(CCNC(=O)c2ccco2)nc2ccccc21	1	/	/	-0.4	/
C=CCn1c(Oc2cccc(C)c2)nc2c1c(=O)n(C)c(=O)n2C	-3	7	5%	2.3	/
C/C(=N\NC(=O)COc1ccccc1-c1ccccc1)c1ccccn1	88	-22	?	1.3	/
O=C(CNC(=O)c1ccc(Br)cc1)NCC(=O)OCC(=O)c1ccc(F)cc1	0	/	/	-0.9	/
NC(=O)c1c(NC(=O)c2ccc(F)cc2)sc2c1CCC2	3	/	/	1.9	/
Cc1[nH]c2ccc(F)cc2c1CCN(Cc1cccnc1)C(=S)NC(C)(C)C	2	/	/	5.8	/
CNC(=S)Nc1cccc(C(=O)O)c1	-1	-3	4%	-3.2	/
COc1ccc(N2CCN(C(=O)C3CCN(S(=O)(=O)c4ccc5c(c4)oc(=O)n5C)CC3)CC2)cc1	2	/	/	0.3	/
CCn1c(COc2ccccc2)nnc1SCC(=O)NCc1ccco1	-10	-1	-4%	-4.3	/
CCCCC(=O)Nc1cc(Cl)ccc1C(=O)O	4	9	1%	-0.3	/
Cc1nc(C)n(C(Oc2ccc(Cl)cc2Cl)C(=O)C(C)(C)C)n1 (centres undefined)	-8	/	/	3.9	/
O=C(Nc1c(F)cc(F)cc1Br)c1cc(-c2ccccc2)on1	98	/	/	-1.7	/
O=C1CC(C(=O)Nc2ccc(Br)cc2)C2(CCCC2)O1 (centres undefined)	-3	7	/	1.2	9
CCCCn1c(N)c(N(CC)C(=O)CSCc2c(C)noc2C)c(=O)[nH]c1=O	?	/	/	2.0	/
CC(C)(C)OC(=O)[C@H](Cc1ccccc1)NC(=O)c1nc[nH]c1C(=O)N1CCc2ccccc2C1	3	/	/	6.0	/
COc1ccccc1NC(=O)COC(=O)CC(C)(C)CC1=NS(=O)(=O)c2ccccc2N1	-8	/	/	-3.8	/
Cc1ccc(C(=O)N2Cc3ccccc3CC2C(=O)O)cc1 (centres undefined)	-1	2	-6%	2.2	-16
COc1ccc(SCCc2nnc(-c3ccccc3)o2)cc1	-2	/	/	3.4	/
O=C(CO/N=C/c1cccc([N+](=O)[O-])c1)NC1CCCCC1	-1	-4	-3%	-2.9	-14
CC1CCCCC1NC(=O)CO/N=C/c1ccccc1OC(F)F (centres undefined)	9	-7	2%	0.5	-6
O=C(O)CCCC(=O)Nc1ccccc1C(=O)N1CCOCC1	-1	-2	7%	-2.5	/
COC(=O)C1=C(C)NC(C)=C(C(=O)OC)C1C1CC=CCC1 (centres undefined)	14	-4	5%	3.0	21	Arbovirus inh repeat=-11
NC(=O)C1CCN(CCCNC2CC(=O)N(Cc3ccc(N4CCCC4=O)cc3)C2=O)CC1 (centres undefined)	-2	-5	4%	-0.5	-14	Arbovirus inh repeat=-2
CCC(NC(=S)NCc1ccc(F)cc1)c1ccc(C(C)C)cc1 (centres undefined)	2	/	/	6.1	/
COc1ccc(-c2ccc([C@H]3[C@@H]4C=CCC[C@@]4(C)C(=O)N3Cc3ccccc3)c(F)c2)cc1	74	/	22%	6.5	/
Cc1ccc(NC(=O)CN2C(=O)CN(C)C2=O)cc1S(=O)(=O)N1CCCCC1	-5	3	-1%	-11	/
COc1cccc(C(=O)OCC(=O)NC(=O)NC2CCCC2)c1O	0	0	7%	0.6	/
CCN(CC)CC(=O)Nc1c2c(nc3ccccc13)N(C)CC2	6	/	/	0.7	/
COC(=O)c1sccc1NC(=O)c1cc(OC)cc(OC)c1	27	-6	-11%	0.7	8
CC(=O)Cn1c(C(F)(F)F)nc2ccccc21	-6	-3	-2%	-0.3	-52
CN1/C(=C/C(=O)C2CCC2)Sc2ccccc21	3	-5	2%	-1.8	-27
Cc1ccccc1CC(=O)NCC1CCCCC1	-6	/	/	1.3	/
COc1cc(OC)cc(C(=O)Nc2ccc3c(c2)OCCO3)c1	-1	/	/	-2.4	/
COC(=O)C1C(=O)C=C(Nc2ccc(F)cc2)CC1c1ccc(OC)cc1 (centres undefined)	4	0	-4%	-1.0	-24
C/C(=N/NC(=O)CNC(=O)c1ccccc1)c1ccc(C)cc1	7	3	3%	-0.3	/
Cc1occc1C(=O)NCCCCc1ccccc1	-11	9	7%	3.0	-13
COc1cc(C2CC(c3c(C)cc(C)[nH]c3=O)=NN2c2ccccc2F)cc(OC)c1OC (centres undefined)	-4	/	/	2.0	/
CCOC(=O)N1CCN(CCC(=O)Nc2cc(C)ccc2OC)CC1	-14	1	2%	0.1	/
Cc1cc(=O)[nH]c2cc(Cl)ccc12	7	2	-6%	7.8	-28
COc1ccc(/C=C(\NC(=O)c2ccco2)C(=O)N2CCCCC2)cc1	-3	/	/	0.3	/
O=C(COC(=O)c1ccc(Cl)s1)c1cc2ccccc2o1	17	-5	7%	14	22
O=C(CCc1ccc(S(=O)(=O)N2CCOCC2)cc1)OCc1nc2ccccc2s1	67	12	11%	1.0	-22
CCCn1nnc(NC(=O)c2ccc(Cl)cc2Cl)n1	-6	2	-9%	-1.2	-3
c1ccc(-c2ccccc2OCCCCN2CCCCCC2)cc1	57	-8	77%	1.3	/
CCOC(=O)c1cn(CC(=O)Nc2cccc(Cl)c2)nn1	-1	6	1%	-0.2	/
CC(NC(=O)CC1SC(N)=NC1=O)c1ccccc1 (centres undefined)	-5	4	-5%	3.1	/
O=C(NCc1ccc(F)cc1F)Nc1cnccc1C(F)(F)F	2	/	/	0.0	/
O=C(NC1Cc2ccccc2C1)c1cc(COc2ccc(F)cc2Cl)on1	0	-1	5%	3.7	/
More entries:
SMILES	Mtb bLac sens	Arbovirus inh	Mtb growth	RecA splice inh	YopH PTP inh	others
Cc1nn(-c2ccccc2)c(C)c1CN	-9	0	2%	0.5	/
Cc1ccc(CN(Cc2cccnc2)C(=O)CN2C(=O)COc3ccccc32)o1	6	-1	0%	-1.8	-45
COc1ccc(CCNS(=O)(=O)c2cc3c4c(c2)CCN4C(=O)CC3)cc1	-10	/	/	4.0	/
C(#CCN1CCOCC1)COCC#Cc1ccccc1	7	-7	2%	-4.1	16
Cc1ccc(NC(=O)C2CCN(c3ncnc4sc(C)c(C)c34)CC2)cc1S(=O)(=O)N(C)C	-4	/	/	6.8	/
O=C(Cn1cc([N+](=O)[O-])cn1)NC1CCCCCC1	-2	/	/	0.4	/
CCOC(=O)Cn1c(=O)oc2cc(S(=O)(=O)N(C)c3cccc(C)c3)ccc21	-9	/	-9%	-1.1	/
COc1ccc(NC(=O)COc2nc3ccccc3nc2N2CCOCC2)c(OC)c1	4	-3	3%	-0.3	/
CCOC(=O)C1CCCN(CCC(=O)Nc2ccc(F)c(F)c2)C1 (centres undefined)	14	1	3%	1.8	-2
O=C1N/C(=C/c2ccc(N3CCOCC3)o2)C(=O)N1c1cccc(Cl)c1	0	-1	5%	-17	/

Reprinted from the listing for reference:
SMILES	Mtb bLac sens	Arbovirus inh	Mtb growth	RecA splice inh	YopH PTP inh	others
Cc1occc1C(=O)NCCCCc1ccccc1	-11	9	7%	3.0	-13
COc1cc(C2CC(c3c(C)cc(C)[nH]c3=O)=NN2c2ccccc2F)cc(OC)c1OC (centres undefined)	-4	/	/	2.0	/
CCOC(=O)N1CCN(CCC(=O)Nc2cc(C)ccc2OC)CC1	-14	1	2%	0.1	/
Cc1cc(=O)[nH]c2cc(Cl)ccc12	7	2	-6%	7.8	-28
COc1ccc(/C=C(\NC(=O)c2ccco2)C(=O)N2CCCCC2)cc1	-3	/	/	0.3	/
O=C(COC(=O)c1ccc(Cl)s1)c1cc2ccccc2o1	17	-5	7%	14	22
O=C(CCc1ccc(S(=O)(=O)N2CCOCC2)cc1)OCc1nc2ccccc2s1	67	12	11%	1.0	-22
CCCn1nnc(NC(=O)c2ccc(Cl)cc2Cl)n1	-6	2	-9%	-1.2	-3
c1ccc(-c2ccccc2OCCCCN2CCCCCC2)cc1	57	-8	77%	1.3	/
CCOC(=O)c1cn(CC(=O)Nc2cccc(Cl)c2)nn1	-1	6	1%	-0.2	/
CC(NC(=O)CC1SC(N)=NC1=O)c1ccccc1 (centres undefined)	-5	4	-5%	3.1	/
O=C(NCc1ccc(F)cc1F)Nc1cnccc1C(F)(F)F	2	/	/	0.0	/
O=C(NC1Cc2ccccc2C1)c1cc(COc2ccc(F)cc2Cl)on1	0	-1	5%	3.7	/
Cc1nn(-c2ccccc2)c(C)c1CN	-9	0	2%	0.5	/
Cc1ccc(CN(Cc2cccnc2)C(=O)CN2C(=O)COc3ccccc32)o1	6	-1	0%	-1.8	-45
COc1ccc(CCNS(=O)(=O)c2cc3c4c(c2)CCN4C(=O)CC3)cc1	-10	/	/	4.0	/
C(#CCN1CCOCC1)COCC#Cc1ccccc1	7	-7	2%	-4.1	16
Cc1ccc(NC(=O)C2CCN(c3ncnc4sc(C)c(C)c34)CC2)cc1S(=O)(=O)N(C)C	-4	/	/	6.8	/
O=C(Cn1cc([N+](=O)[O-])cn1)NC1CCCCCC1	-2	/	/	0.4	/
CCOC(=O)Cn1c(=O)oc2cc(S(=O)(=O)N(C)c3cccc(C)c3)ccc21	-9	/	-9%	-1.1	/
COc1ccc(NC(=O)COc2nc3ccccc3nc2N2CCOCC2)c(OC)c1	4	-3	3%	-0.3	/
CCOC(=O)C1CCCN(CCC(=O)Nc2ccc(F)c(F)c2)C1 (centres undefined)	14	1	3%	1.8	-2
O=C1N/C(=C/c2ccc(N3CCOCC3)o2)C(=O)N1c1cccc(Cl)c1	0	-1	5%	-17	/

Next part.
SMILES	Mtb bLac sens	Arbovirus inh	Mtb growth	RecA splice inh	YopH PTP inh	others
CCCc1c(O)nc(SC2CC(=O)N(c3cc(OC)ccc3OC)C2=O)[nH]c1=O (centres undefined)	-5	0	-3%	-2.0	-37
Nc1c(Cl)cnc(C(Cl)(Cl)Cl)c1Cl	-1	15	1%	2.6	/
Cc1ccc(CNC(=O)CCCC(=O)Nc2cc(C)on2)cc1	0	1	-12%	0.5	/
CCN(CC)S(=O)(=O)c1cccc(NC(=O)CCNC(=O)NC23CC4CC(CC(C4)C2)C3)c1	3	/	/	3.1	/
COc1ccc(CCC(=O)N2CCN(S(=O)(=O)c3ccc4ccccc4c3)CC2)cc1	-19	15	-1%	4.3	-15
COc1ccc(S(=O)(=O)Nc2ccc(-c3ccc(N4CCCC4)nn3)cc2)cc1C	0	/	/	3.9	/
COc1ccc(C2NS(=O)(=O)OCC2C)cc1 (centres undefined)	-3	/	/	-2.1	/
O=C(Nc1ccccc1-c1ccccc1)c1cccc([N+](=O)[O-])c1	-4	-13	5%	-9.3	-2
O=C(NC1CCCCC1)N(Cc1cc2cc3c(cc2[nH]c1=O)OCCO3)CC1CCCO1 (centres undefined)	-3	-3	-13%	-1.7	-40
COc1ccc(CC(=O)NNc2ncnc3c2cnn3C)cc1OC	7	-6	1%	1.8	-17
O=C1CC(c2ccccc2)CC(O)=C1C=Nc1ccc(O)cc1 (centres undefined)	-1	-3	2%	-13	/
COc1ccccc1OCCSc1ncnc2nc[nH]c12	0	-28	-3%	-4.1	-41
COc1ccc(Cl)cc1C(=O)Nc1ccc2c(c1)OCCO2	16	/	/	0.9	/
COC(=O)C(C(=O)OC)c1ccc(NC(=O)c2cccc(Cl)c2)cc1	-11	-2	-13%	-3.2	/
COc1cc(C)c(CN2CCCCC2CO)cc1C (centres undefined)	-9	7	-2%	-1.5	-19
CCOC(=O)C1(CC)NC(c2cccc(F)c2)C2C(=O)N(CC)C(=O)C21 (centres undefined)	-2	4	-1%	4.7	-14

Screens as filed in PubChem.
